SMARCA2 activ – SMARCA2 function activation, primary screen; activation, % at 9.1 µM; AID 652017; MG213 cells, MMTV-luciferase reporter, dexamethasone, overnight; 1% of 370,000 active; in the data active means activation above about 7.8%;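 further: 0% = vehicle wells and 100% = reference activator wells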
HGIII-sPLA2 inh – Inhibits HGIII-sPLA2 liposome hydrolysis, primary screen; Q9NZ20; QFRET BODIPY PC-A2 liposome hydrolysis, fluorescence; inhibition, % at 12.2 µM; 0.56% of 370,000 active; AID 743126;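 active means inhibition above mean plus 3 SD of compounds lying within the high and low control bounds, cut at about 19% in these data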;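 further: 0% = median of test compound wells and 100% = no enzyme DMSO wells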
Target sequence (Q9NZ20 whole entry, looked up): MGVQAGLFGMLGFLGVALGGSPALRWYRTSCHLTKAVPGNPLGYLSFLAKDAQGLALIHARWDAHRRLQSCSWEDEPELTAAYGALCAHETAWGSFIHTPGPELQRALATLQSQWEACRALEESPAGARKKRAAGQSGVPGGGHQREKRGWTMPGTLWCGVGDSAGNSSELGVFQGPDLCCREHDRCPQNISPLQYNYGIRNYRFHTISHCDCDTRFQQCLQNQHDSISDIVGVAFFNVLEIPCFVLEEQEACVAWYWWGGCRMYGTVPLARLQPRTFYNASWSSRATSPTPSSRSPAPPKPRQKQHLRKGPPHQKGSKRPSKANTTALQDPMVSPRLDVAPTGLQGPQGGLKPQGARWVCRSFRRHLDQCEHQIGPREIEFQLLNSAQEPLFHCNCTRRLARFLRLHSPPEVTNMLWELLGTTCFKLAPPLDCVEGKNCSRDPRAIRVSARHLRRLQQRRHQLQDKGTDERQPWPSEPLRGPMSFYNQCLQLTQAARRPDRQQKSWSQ
PG9 Ab binder – binds the HIV-1 gp120 antibody PG9. TR-FRET gp120-PG9 antibody binding. inhibition, % at 6.7 µM. 0.43% of 360,000 active; in the data active means inhibition above about 8.5%
PLCb3 inh – inhibitors of human phospholipase C beta3; 0.18% of 370,000 active; Purified PLC-beta3, fluorogenic substrate, fluorescence; Q01970; inhibition, % at 12.2 µM; in the data active means inhibition above about 11%;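 further: 0% = median of compound wells on plate and 100% = full blocker control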
GAA850 FXN act – frataxin GAA850 promoter activation. HEK293 lucGAA850 FXN promoter luciferase reporter, 24 h; percent of 10 µM SAHA response. activation, % at 6 µM. 0.56% of 360,000 active. AID 540364;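 active means activation above the average of all compounds screened plus 3 SD, cutoff fixed separately per campaign, cut at about 7.5% in these data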;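 further: 0% = DMSO wells and 100% = 10 µM SAHA wells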
* marks the source's active call; other numbers are inactive results; i = inactive; & = joins results of further samples; ! = repeats disagree.

SMILES	SMARCA2 activ	HGIII-sPLA2 inh	PG9 Ab binder	PLCb3 inh	GAA850 FXN act
Cc1ccc(C(=O)NN=CC(=O)c2ccccc2)c(C)c1	5	-1	0.9	2	3.5
COc1ccc(NC(=O)Nc2ccccc2F)cc1	5	11	0.2	4	-0.4
Brc1ccc(-c2cn3ccccc3n2)s1	1	-5	-0.7	-1	2.0
CC(COc1ccccc1)N(CCCl)Cc1ccccc1 (stereo not drawn)	-2	-1	1.7	4	-0.4
Cc1cnc(NC(=O)C2C(=O)c3ccccc3S(=O)(=O)N2C)s1 (stereo not drawn)	-2	-18	-1.5	-6	1.1
COc1ccccc1-c1noc(-c2ccco2)n1	4	1	-0.6	-3	4.8
CC(C)(C(=O)O)c1ccc(C(O)CCCN2CCC(C(O)(c3ccccc3)c3ccccc3)CC2)cc1 (stereo not drawn)	1	-11	-0.1	6	-2.0
COc1ccc(-c2csc(Nc3ccccn3)n2)cc1	-1	-7	1.1	-2	1.0
COc1ccc(CC(C)NCC(O)c2ccc(O)c(NC=O)c2)cc1 (stereo not drawn)	20*!	8&-4	-1.0&-1.3	-2&-1	8.0*!
O=C(Nc1ccc2c(c1)OCCO2)c1cccc(Br)c1	4	5	-1.4	-2	2.5
COc1ccc(CC(=O)Nc2nc3ccccc3[nH]2)cc1	3	-1	0.2	3	2.6
Cc1ccc(C)c(OCCCC(C)(C)C(=O)O)c1	-2	-7	-2.6	-5	1.4
Cc1csc(NC(=O)c2ccccc2)n1	2	-4	-1.3	-4	3.7
CC(C)c1ccc(NC(=O)c2ccc(Br)o2)cc1	3	5	0.4	6	-0.7
CN1C2CC(OC(=O)C(CO)c3ccccc3)CC1C1OC12 (stereo not drawn)	-1&-4&1	-5&9&14	-2.3&-0.8&1.2	-2&-3&-4	-0.5&-1.6&1.4
Fc1ccccc1-c1nc(-c2ccc(Cl)cc2)no1	8.0*	0	-0.4	3	5.8
CCCC(=O)Nc1ccc(OCC(O)CNC(C)C)c(C(C)=O)c1 (stereo not drawn)	1	-2	-1.1	-25	3.0
CSc1nc(N)n2nc(-c3ccccc3)cc2n1	4	-3	-1.1	-2	5.8
O=C(O)CCNC(=O)c1ccccc1	-8	11	0.2	-3	2.2
O=c1c(-c2ccc(O)cc2)coc2cc(O)ccc12	0	-2	0.7	-199	2.4
O=C(Nc1nc(-c2cccs2)cs1)C1=COCCO1	4	-1	0.6	-5	3.6
O=C(Nc1ccc([N+](=O)[O-])cc1Cl)c1cc(Cl)ccc1O	-1	-1	0.3	-1	-0.6
Cn1cccc1C(=O)OCC(=O)Nc1sccc1C#N	5	1	-1.5	-5	2.3
c1ccc2nc(-c3ccc4c(c3)OCO4)ccc2c1	-1	12	0.6	-185	2.4
CN/C(=C/[N+](=O)[O-])NCCSCc1ccc(CN(C)C)o1	-2	3	0.0	-5	0.8

Overlap with the part before: four compounds, then new ones.
SMILES	SMARCA2 activ	HGIII-sPLA2 inh	PG9 Ab binder	PLCb3 inh	GAA850 FXN act
O=C(Nc1ccc([N+](=O)[O-])cc1Cl)c1cc(Cl)ccc1O	-1	-1	0.3	-1	-0.6
Cn1cccc1C(=O)OCC(=O)Nc1sccc1C#N	5	1	-1.5	-5	2.3
c1ccc2nc(-c3ccc4c(c3)OCO4)ccc2c1	-1	12	0.6	-185	2.4
CN/C(=C/[N+](=O)[O-])NCCSCc1ccc(CN(C)C)o1	-2	3	0.0	-5	0.8
C[C@H](C(=O)O)c1cccc(C(=O)c2ccccc2)c1	-3	2	-0.7	-1	0.8
COc1c(N2C[C@@H]3CCCN[C@@H]3C2)c(F)cc2c(=O)c(C(=O)O)cn(C3CC3)c12	4	-5	1.7	i	-0.8
CN1C2CCC1CC(OC(=O)C(CO)c1ccccc1)C2 (stereo not drawn)	1	2	0.8	3	3.3
CC(C)(C)CC(C)(C)c1ccc(OCCOCC[N+](C)(C)Cc2ccccc2)cc1	-8	0	0.6	5	-2.8
Cc1cnc(NC(=O)C2=C(O)c3ccccc3S(=O)(=O)N2C)s1	0&-4&0&-4	-17&-12&-5&-13	-1.6&0.9&-0.7&-2.2	-5&-5&-5&-3	0.3&3.0&0.1&-0.3
CN=C(C[N+](=O)[O-])NCCSCc1ccc(CN(C)C)o1	-1	1	-0.5	-5	0.3
CCc1ccc(NC(=O)Nc2ccsc2C(=O)OC)cc1	5	-7	-0.2	-13	2.6
Cc1nn(-c2nc3ccccc3[nH]2)c(N)c1-c1ccccc1	3	11	0.4	2	5.2
COc1ccc(-c2coc3cc(O)cc(O)c3c2=O)cc1	1	-13	-0.1	1	2.4
CC(C)[N+]1(C)[C@@H]2CC[C@@H]1CC(OC(=O)C(CO)c1ccccc1)C2 (stereo partly drawn)	3	-3	-0.5	3	3.5
COc1ccccc1-c1nc(-c2ccncc2)no1	10*	-2	0.3	2	3.4
O=C(O)COCCN1CCN([C@H](c2ccccc2)c2ccc(Cl)cc2)CC1	2	0	-0.6	2	1.2
COc1ccc(-c2noc(-c3cccs3)n2)cc1OC	5	-7	-0.2	-2	4.0
Nc1ccc(OCCc2ccccc2)cc1	3	6	-3.6	-4	1.7
CC[N+](C)(C)c1cccc(O)c1	0	1	-0.6	1	-1.6
Cc1ccc(C(=O)OCC(=O)c2ccccc2)cc1	4	-6	-1.8	-5	2.8
COC(=O)C1=C(C)NC(C)=C(C(=O)OCCN(C)Cc2ccccc2)C1c1cccc([N+](=O)[O-])c1 (stereo not drawn)	-7	-5	0.1	-1	-4.9
Cc1nn(CC(=O)O)c(C)c1Cl	-3	0	0.6	4	-0.6

Entries from the list above that contain a COOH group:
SMILES	SMARCA2 activ	HGIII-sPLA2 inh	PG9 Ab binder	PLCb3 inh	GAA850 FXN act
CC(C)(C(=O)O)c1ccc(C(O)CCCN2CCC(C(O)(c3ccccc3)c3ccccc3)CC2)cc1 (stereo not drawn)	1	-11	-0.1	6	-2.0
Cc1ccc(C)c(OCCCC(C)(C)C(=O)O)c1	-2	-7	-2.6	-5	1.4
O=C(O)CCNC(=O)c1ccccc1	-8	11	0.2	-3	2.2
C[C@H](C(=O)O)c1cccc(C(=O)c2ccccc2)c1	-3	2	-0.7	-1	0.8
COc1c(N2C[C@@H]3CCCN[C@@H]3C2)c(F)cc2c(=O)c(C(=O)O)cn(C3CC3)c12	4	-5	1.7	i	-0.8
O=C(O)COCCN1CCN([C@H](c2ccccc2)c2ccc(Cl)cc2)CC1	2	0	-0.6	2	1.2
Cc1nn(CC(=O)O)c(C)c1Cl	-3	0	0.6	4	-0.6

4 records picked at random from the list so far:
SMILES	SMARCA2 activ	HGIII-sPLA2 inh	PG9 Ab binder	PLCb3 inh	GAA850 FXN act
O=C(Nc1nc(-c2cccs2)cs1)C1=COCCO1	4	-1	0.6	-5	3.6
COc1ccc(CC(C)NCC(O)c2ccc(O)c(NC=O)c2)cc1 (stereo not drawn)	20*!	8&-4	-1.0&-1.3	-2&-1	8.0*!
Nc1ccc(OCCc2ccccc2)cc1	3	6	-3.6	-4	1.7
CC(C)(C(=O)O)c1ccc(C(O)CCCN2CCC(C(O)(c3ccccc3)c3ccccc3)CC2)cc1 (stereo not drawn)	1	-11	-0.1	6	-2.0

High-throughput results (PubChem)

Some of the compounds tested (hit frequency here may not be typical).
